Source: PubChem BioAssay (National Center for Advancing Translational Sciences (NCATS))
MARV entry inh: qHTS for inhibitors of binding or entry into cells for Marburg Virus; Marburg virus pseudotyped entry inhibition, cell reporter; control for the full effect not named in the record; about a third of the inactives were read at about 46 µM; Potency, µM (series often up to 37.8 µM), inactives show top-dose activity change, negative = inhibition, usual class: inhibitors; 300,000 compounds, 1.8% hits; AID 540276, 2011; active = well fitted inhibition curve with a large enough effect; inconclusive = small, poorly fitted or top-dose-only effect, or effect the other way; inactive = flat fitted curve, though single readings scatter; tested in HEK293 cells; about a fifth of its hits are not listed in these tables; note: % is set by controls: 0 for no effect and ±100 for the full control effect; luciferase read-out
RE007 growth inh: qHTS Assay for Inhibitors of the HIV-1 protein Vpr; S. pombe RE007 Vpr strain, BacTiter-Glo ATP luminescence, 24 h; control for the full effect not named in the record; Potency, µM (highest dose often 92.2 µM), for the others: at the highest dose activity change, negative = less growth; 360,000 compounds, 0.21% hits; AID 651644, 2012; active = well fitted falling curve with a large enough effect; inconclusive = small, poorly fitted or top-dose-only effect; inactive = no such curve, though single readings can be large or run the other way;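 note: % is set by controls: 0 for no effect and ±100 for the full control effect; nearly all actives have a fitted effect of over 50% in size; the assay follows cell death caused by Vpr and the record does not say whether a fall means rescue or toxicity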
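Fission yeast RE007 carrying one integrated HIV-1 vpr copy, seeded at OD 0.01 in PMG+AL medium with 23 nL pinned compound. Grown 24 h at 30 degrees; viability read by BacTiter-Glo luminescence after 5 min.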
Cruzain inh noDet: qHTS Assay for Promiscuous and Specific Inhibitors of Cruzain (without detergent); Cruzipain (Trypanosoma cruzi), P25779; purified cruzain, Z-FR-AMC fluorescence, no detergent; Potency, µM, for the others: max response, negative = inhibition, hits mostly inhibitors; 200,000 compounds, 2.3% hits;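 note: plate controls were enzyme without inhibitor for no effect and buffer without enzyme for full effect; nearly all actives have a fitted effect of over 40% in size; top concentration of the series not given in the record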
Target sequence (P25779 123-467 limits assumed): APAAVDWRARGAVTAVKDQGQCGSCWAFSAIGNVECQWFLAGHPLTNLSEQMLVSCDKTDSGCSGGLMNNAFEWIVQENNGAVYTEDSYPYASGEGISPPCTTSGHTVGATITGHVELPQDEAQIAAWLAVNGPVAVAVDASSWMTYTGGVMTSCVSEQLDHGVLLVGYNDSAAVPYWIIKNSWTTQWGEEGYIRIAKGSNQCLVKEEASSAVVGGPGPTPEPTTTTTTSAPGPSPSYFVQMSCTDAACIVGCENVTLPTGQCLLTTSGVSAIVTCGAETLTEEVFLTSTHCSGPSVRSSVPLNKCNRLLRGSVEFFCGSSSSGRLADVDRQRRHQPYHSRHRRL
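Purified cruzain at 1.5 nM, pre-incubated 15 min with compound at room temperature in 100 mM sodium acetate pH 5.5, 5 mM DTT, 0.00005% Triton X-100. Reaction started with 2 uM Z-FR-AMC; AMC fluorescence increase over 60 s gives rate.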
2A StopGo: High Throughput Screening for Foot and Mouth Disease Virus Antivirals | 410,000 compounds, 1.2% hits | AID 1159524, 2015 | Potency, µM (doses to about 57.9 µM), without a hit: at the top dose signal change, negative = less light | human cells with a luciferase reporter of 2A StopGo recoding; control for the full effect not named in the record; active = well fitted falling curve with a large enough effect; inconclusive = small, poorly fitted or top-dose-only effect; inactive = no such curve, though single readings can be large or run the other way; tested in HEK293T cells; note: % is set by controls: 0 for no effect and ±100 for the full control effect; nearly all actives have a fitted effect of over 45% in size; luciferase light after 4 h
SARS PLpro yeast: qHTS of Yeast-based Assay for SARS-CoV PLP. S. cerevisiae expressing SARS-CoV PLpro, growth rescue; control for the full effect not named in the record. Potency, µM (top dose mostly 32.9 µM), for inactives: at the top dose activity, positive = growth rescue. 330,000 compounds, 0.19% hits. AID 485353, 2010; active means well fitted rising curve with a large enough effect; inconclusive means small, poorly fitted or top-dose-only effect; inactive means no such curve, though single readings can be large or run the other way; note: 0% is about no effect; nearly all actives have a fitted effect of over 55% in size; growth read by luminescence after 48 h
NS1 function inh: qHTS Assay for Inhibitors of Influenza NS1 Protein Function; S. cerevisiae slowed by influenza A NS1, growth recovery by OD600; Potency, µM (doses to about 46.1 µM), without a hit: at the top dose activity, positive = more growth; 270,000 compounds, 0.4% hits; active means well fitted rising curve with a large enough effect; inconclusive means small, poorly fitted or top-dose-only effect; inactive means no such curve, though single readings can be large or run the other way; note: nearly all actives have a fitted effect of over 50% in size
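Compounds were scored for reversing the slow growth caused by influenza A NS1 in S. cerevisiae, measured by optical density at 600 nm. Assay medium contained 2% galactose at pH 6.0; NS1-free yeast of the same strain were the positive control.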
Cruzain Triton: qHTS Assay for Promiscuous and Specific Inhibitors of Cruzain (with detergent). Cruzipain (Trypanosoma cruzi), P25779. purified cruzain, Z-FR-AMC fluorescence, 0.01% Triton. Potency, µM, for inactives: max response, negative = inhibition, actives largely listed as inhibitors. 200,000 compounds, 0.43% hits. AID 1478, 2009;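 note: plate controls were neutral wells for no effect and buffer without enzyme for full effect; nearly all actives have a fitted effect of over 40% in size; top concentration of the series not given in the record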
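Read-out: AMC fluorescence (360 nm excitation, 450 nm emission), four reads over 2 min, first-to-third difference used. Conditions: cruzain 1.5 nM, Z-FR-AMC 2 uM, pH 5.5 acetate, 5 mM DTT, 0.01% Triton X-100.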
LASV entry inh: qHTS for Inhibitors of binding or entry into cells for Lassa Virus | Lassa virus pseudotype entry inhibition, cell reporter; control for the full effect not named in the record | Potency, µM (series often up to 37.9 µM), inactives show top-dose activity change, negative = inhibition, actives largely listed as inhibitors | 300,000 compounds, 1.2% hits | AID 540256, 2011; active means well fitted inhibition curve with a large enough effect; inconclusive means small, poorly fitted or top-dose-only effect, or effect the other way; inactive means flat fitted curve, though single readings scatter; tested in HEK293 cells; note: % is set by controls: 0 for no effect and ±100 for the full control effect; nearly all actives have a fitted effect of over 50% in size; luciferase read-out
Active calls of the source: *; u = inconclusive; x = no result given; & = joins results of further samples; [ ] = remark or other dose. Unless noted, calls come from the whole dose curve; as a rule, active = well fitted curve in the direction sought with a large enough effect; inconclusive = small, poorly fitted or top-dose-only effect, or another doubt; inactive = no such curve, though single readings can be large; an effect the other way counts as inactive or inconclusive. Potency is the fitted concentration of half-maximal effect. Not a hit list. Share with any hit: about 4.6%.

SMILES | MARV entry inh | RE007 growth inh | Cruzain inh noDet | 2A StopGo | SARS PLpro yeast | NS1 function inh | Cruzain Triton | LASV entry inh
COc1cccc(/C=C2/SC(=S)N(CC(=O)Nc3nnc(C)s3)C2=O)c1 | 4% | 10% | -23% | 26% | -8% | 22% | -9.1% | 7%
O=C(Oc1ccc(Cl)cc1)N1CCCCC1 | u | u | -4% | 11% | 2% | 10% | 0.6% | u
Cc1ccccc1C(=O)N1CCC(C(=O)Nc2ccccc2Cl)CC1 | 35% | 14% | x | -11% | 2% | -4% | x | -3%
Cc1ccccc1-n1c(O)c(/C=N/NC(=O)c2ccncc2)c(=O)[nH]c1=O | 0%[46.1 µM] | -14% | x | 9% | 0% | -2% | x | 3%[46.1 µM]
CC(C)C(OC(=O)c1cccc(S(=O)(=O)NCC(F)(F)F)c1)C(=O)NC(N)=O (stereo not drawn) | 3%[46.1 µM] | -4% | x | 104%[activator] | 0% | x | x | 15%
COc1ccc(S(=O)(=O)NC(C(=O)OCC(=O)Nc2ccc(N3CCOCC3)cc2)C(C)C)cc1 (stereo not drawn) | -2% | 2% | x | 17% | x | x | x | 3%
COc1ccc(C2C(C(C)=O)=C(O)C(=O)N2c2nccs2)cc1 (stereo not drawn) | -9% | 2% | -1% | -10% | x | 1% | -3.7% | 4%
COc1ccc(NCc2cc3cc4c(cc3n(CC(=O)Nc3ccc(F)cc3)c2=O)OCCO4)cc1 | x | x | 20µM* | -17% | x | x | -4.6% | 0%[46.1 µM]
CCC(=O)Nc1ccc(-c2ccc(N3CCCCC3)nn2)cc1 | x | -7% | x | 3% | u | -7% | x | x
Clc1ccc(CN2CCN(c3ncccn3)CC2)cc1Cl | -1%[46.1 µM] | 4% | x | -1% | 16% | -27% | x | -15%[46.1 µM]
CS(=O)(=O)N(CC(=O)NCc1ccncc1)c1cc(Cl)ccc1Cl | 2%[46.1 µM] | 10% | x | -10% | 1% | 2% | x | -2%
CCc1cc(CNC(=O)CC2C(=O)NCCN2Cc2c(F)cccc2Cl)on1 (stereo not drawn) | -10%[46.1 µM] | 16% | x | -1% | 1% | 8% | x | -10%
Nc1cc(=O)[nH]c(SCC(=O)N2CCc3ccccc3C2)n1 | 1% | -9% | 4% | 6% | -1% | 10% | 4.5% | 3%
CCOC(=O)c1cc(C(=O)OCC)c2ccccn2c1=O | 15% | 7% | u | -26% | 1% | -2% | -21% | 11%
NCCC(=O)NCCc1cnc[nH]1 | u | 3% | -8%&-4% | -20% | x | -12% | 3.5%&-1.7% | x
Clc1ccc(-c2nnc(-c3ccccc3)nc2N2CCSCC2)cc1 | -7% | -2% | u | -1% | 7% | -33% | -3.6% | 7%
CCOC(=O)CCCCC1C(CCCC(=O)OCC)C=NN1C (stereo not drawn) | 3% | 15% | x | 20% | x | x | x | -12%[46.1 µM]
CCOC(=O)CNC(=O)N1CCN(c2nnc(C)c3c(C)n(-c4ccc(Cl)cc4)nc23)CC1 | x | x | -1% | -11% | x | x | -1.2% | -19%[46.1 µM]
CCN1CCN(c2cc(C)c3cc(NC(=O)CCC(=O)N4CCN(c5ccccc5)CC4)ccc3n2)CC1 | u | -7% | x | -16% | 3% | -8% | x | -2%[46.1 µM]
Cc1ccc([N+](=O)[O-])cc1NC(=O)C(Sc1ccccc1)c1ccccc1 (stereo not drawn) | -7% | 3% | -5% | u | 9% | 10% | -7.0% | u
CCCCOc1cccc(C(=O)Nc2ccccc2N2CCCC2)c1 | -9% | 2% | x | -17% | -2% | 0% | x | -15%
Cc1cc(=O)c2c(o1)C(=O)c1occc1C2=O | -26% | -13% | x | -15% | x | x | x | -11%
O=S(=O)(Nc1ccc2ccccc2c1)c1ccccc1 | -3% | 0% | -5% | 54%[activator] | 1% | -12% | -10.0% | 2%
Cc1noc(C(=O)N(C)c2ccccc2)c1Cl | 0% | -1% | x | 0% | -3% | 4% | x | x
COc1ccc(N=C2S/C(=C\c3ccc(OCC(=O)O)cc3)C(=O)N2CCc2c[nH]c3ccccc23)cc1 | -15%[46.1 µM] | 1% | x | 2% | 1% | 13% | x | 16%[46.1 µM]
CN(C)S(=O)(=O)c1ccc(C(=O)Nc2cc(S(=O)(=O)Nc3ccccc3Cl)ccc2N2CCCCC2)cc1 | -11%&-27% | 4% | 25µM* | 6% | -14% | u | -4.7% | 5.2µM*
CS(=O)(=O)CC[C@@H](C(=O)NCCc1ccccc1)N1Cc2ccccc2C1=O | -4%[46.1 µM] | x | -4% | 8% | x | x | 0.1% | -1%[46.1 µM]
COc1ccc(OCC(=O)Nc2ccc(N3CCN(Cc4ccccc4F)CC3)cc2)cc1 | x | -14% | x | -27% | 1% | 8% | x | x
CCn1c(CN2CCN(c3cccc(Cl)c3)CC2)nc2c1c(=O)[nH]c(=O)n2C | -10%[46.1 µM] | x | 21% | -17% | x | x | -6.3% | u
O=C(CSc1ccc2nnc(CCNS(=O)(=O)c3ccccc3)n2n1)Nc1nc2ccccc2s1 | 13% | 7% | 0% | u | u | -2% | -4.4% | -10%
Cc1nn(C)cc1S(=O)(=O)N1CCCC(C(=O)O)C1 (stereo not drawn) | -1%[46.1 µM] | 9% | x | -7% | -1% | x | x | 1%[46.1 µM]
CC1Cc2ccccc2N1C(=O)CN1CCN(S(=O)(=O)c2cccs2)CC1 (stereo not drawn) | 5% | 25% | x | -3% | -4% | x | x | -1%
CCN(CC)c1ccc(C(=O)Nn2cnc3ccccc3c2=O)cc1 | u | 22% | x | -10% | 5% | -5% | x | -19%[46.1 µM]
CCN1CCN(C(=O)c2ccccc2NS(=O)(=O)c2ccc(Cl)cc2)CC1 | 15%[46.1 µM] | 0% | x | 0% | 1% | 4% | x | 12%
Cc1ccccc1N1CCN(C2=NC(=O)/C(=C/c3cn[nH]c3-c3ccccc3)S2)CC1 | 12% | 5% | -16% | -15% | -1% | 19% | 0.3% | -3%
COc1ccccc1C(=O)NCC(=O)OCCCOC(=O)CNC(=O)c1ccccc1OC | u | -27% | x | -13% | -2% | 1% | x | 3%
Cc1cc(C)c(NC(=O)CSc2nncn3c2cc2oc(C)cc23)c(C)c1 | x | x | 4% | -12% | x | x | -1.1% | 3%[46.1 µM]
Cc1cccc(CC2CC(=O)N(c3ncccn3)C2=O)c1 (stereo not drawn) | 8% | 10% | 3% | x | 2% | -4% | -0.1% | -4%
CCn1c(=O)n(CCOC)c(=O)c2c3c(sc21)CCCC3 | -4%[46.1 µM] | 7% | 3% | -14% | 14% | -2% | -5.3% | 4%
CC(=O)N1CCCc2cc(S(=O)(=O)N3CCCC(C(=O)NCc4ccccc4Cl)C3)ccc21 (stereo not drawn) | x | 4% | 15% | u | 0% | 3% | -4.5% | -16%[46.1 µM]
Cc1ccc2nc(-c3ccc(Cl)c(NC(=O)c4cccc([N+](=O)[O-])c4C)c3)oc2c1 | 3%[46.1 µM] | x | 9% | 40%[activator] | x | x | 0.2% | -8%[46.1 µM]
O=C(Cn1ccc2ccccc2c1=O)NCC(=O)N1CCN(c2ccccc2F)CC1 | 3%[46.1 µM] | 1% | x | 21% | 3% | 14% | x | 2%[46.1 µM]
CC(=O)NC(CC(C)C)C(=O)NC(Cc1ccccc1)C(=O)CCl (stereo not drawn) | u | -6% | x | 28µM* | x | x | x | -13%
CC1(C)CC(NS(=O)(=O)c2ccc3ccccc3c2)CC(C)(C)N1 | 4%[46.1 µM] | -3% | x | -4% | -8% | -11% | x | u
CCC(C)n1c(SCC(=O)NC2CCS(=O)(=O)C2)nc2ccccc2c1=O (stereo not drawn) | 9% | 1% | x | -11% | 5% | x | x | 15%
CSc1cccc(NC(=O)Cn2nc(C)c3sc4ccccc4c3c2=O)c1 | u | x | 14% | -8% | x | x | -7.7% | u
CCN(CC(=O)NCc1cccs1)S(=O)(=O)c1ccccc1Cl | -12% | -16% | x | -4% | 0% | x | x | -2%
CCOCCCNC(=O)N1CCN(S(=O)(=O)c2ccc3c(ccn3C)c2)CC1 | x | x | 0% | -22% | x | x | -2.5% | 29%[46.1 µM]
COc1ccc(N2C(=O)N[C@@H](Cc3ccccc3)C2=O)cc1OC | x | -10% | x | -13% | 1% | 1% | x | x
O=C(N/N=C/c1ccc[nH]1)c1ccc(Cl)cc1 | -19% | x | -16% | 56%[activator] | -2% | 6% | -7.3% | u
O=C1CSC(c2cn(-c3ccccc3)nc2-c2cc3ccccc3o2)N1Cc1ccccc1 (stereo not drawn) | u | 4% | u | 2% | 8% | 8% | 3.7% | 4%
CCOc1ccc(C2CC(c3ccc(OC)cc3)n3ncnc3N2)cc1 (stereo not drawn) | 7% | 8% | 0% | 19% | -14% | -13% | -0.3% | x
COc1cccc(/C(O)=C2/C(=O)C(=O)N(CCN3CCOCC3)C2c2cccnc2)c1 (stereo not drawn) | 3%&-5% | 6% | -6% | -18% | 17% | -2% | -6.0% | -1%
CCCC(=O)Nc1ccc(NC(=O)c2ccco2)cn1 | -6% | 21% | 3% | 51%[activator] | -2% | -12% | 0.9% | 12%
Cc1[nH]n(-c2ncc(-c3ccc(Cl)cc3)s2)c(=O)c1C(c1ccc(Cl)cc1)C(C#N)C#N (stereo not drawn) | u | 1% | 3.2µM* | u | -15% | 8% | u | -5%
COCC(=O)N1CCCc2ccccc21 | 29%[46.1 µM] | 24% | -10% | -13% | 16% | -3% | 7.7% | u
C=CCOc1cccc(C(=O)N2CCC(CCC(=O)NC3CC3)CC2)c1 | x | 21% | x | -10% | 8% | 2% | x | x
Cn1nc(C(=O)NNC(=O)c2ccccc2Br)c2ccccc2c1=O | -11% | 6% | x | -6% | -5% | x | x | 12%
COC(=O)C1=C(C)N(CCc2c[nH]c3ccccc23)C(=O)C1 | 28%[46.1 µM] | 3% | x | 58%[activator] | 1% | 5% | x | u
